Assay outcomes deposited in PubChem by several laboratories.
Mtb hypoxia rep – reduces hypoxia-regulated biosensor signal in M. tuberculosis; M. tuberculosis hypoxia-regulated fluorescent reporter, fluorescence; 0.1% of 300,000 active; AID 1159583; fluorescence inhibition, % (test concentration not listed);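 active = 35 to 45% if threefold the growth effect, above 45% if 1.5-fold the growth effect; inactive = the rest, general growth blockers included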;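 note: wells of about 50 µL received 100 nL stock; 0% = vehicle wells and 100% = reference inhibitor wells; whole bacteria with a GFP reporter of the hypoxia response; strong numbers were not always called active; many hits fall short of the cut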
Bead autofluor – flagged as autofluorescent in microsphere protease counterscreen | compound autofluorescence counterscreen, microsphere flow cytometry; hits give high values | AID 624483 | fluorescence intensity (test concentration not listed) | 3.1% of 360,000 active;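 active = at least 3 SD above the mean of all compounds, about 16000 in these data; inconclusive = too few beads counted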;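 note: 100 nL of 1 mM stock went into each well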
Sa ugtP lethal – compounds lethal to S. aureus RN4220 ugtP deletion mutant. 0.54% of 330,000 active. OD600 growth, 16 h; some inactives read as strong as hits. growth inhibition, % (test concentration not listed). AID 1259309;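 active = z-score under -3 and OD600 up to 0.15 on both plates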;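 note: plate controls were untreated wells for no effect and antibiotic for full effect; wells of about 80 µL received 100 nL stock; the first replicate is given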
BJeLR lethal – BJeLR cell viability loss. BJeLR (HRASV12) viability, CellTiter-Glo ATP luminescence, 48 h; reference of the scale not given here. inhibition, % (concentration not given with the values). 0.17% of 300,000 active. AID 1554;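 active = replicate mean above 50%; inconclusive = above 50% but judged a plate artefact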;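 note: 50 nL library stock added to about 25 µL; numbers are from one replicate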
PrP UTR inh – inhibition of PrP 5' UTR reporter expression. 0.35% of 340,000 active. inhibition, % (test concentration not listed). cell-based PrP 5' UTR mRNA reporter, plate reader;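 active = every replicate at 50% or more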;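 note: 0 = median of the neutral control wells; tested in H4 reporter cells; numbers are from one replicate; inactives centre near -14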
Sa RN4220 lethal – kills Staphylococcus aureus RN4220. inhibition, % (test concentration not listed). 0.33% of 330,000 active. S. aureus RN4220 growth, OD600, 16 h;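 active = z-score of -3 or lower and OD600 up to 0.18 on both plates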;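 note: plate controls were untreated cells for no effect and reference antibiotic for full effect; stock transfer was 100 nL into about 80 µL; one replicate is shown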
Mtb hypoxia rep growth – further read-out of Mtb hypoxia rep, marked with its call; growth inhibition, %; measured here: M. tuberculosis growth (absorbance);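 0% = vehicle and 100% = reference antibiotic; read after six days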
An asterisk follows results filed as active; u = inconclusive; x = not tested or not shown.

compound	Mtb hypoxia rep	Mtb hypoxia rep growth	Bead autofluor	Sa ugtP lethal	BJeLR lethal	PrP UTR inh	Sa RN4220 lethal
COc1cc(/C=C(\C#N)C(=O)Nc2cccc3ncccc23)cc(OC)c1OC	10	-1	2617	2	-7	-7	4.2
C=CCN1C(=O)NC(c2ccccc2)(C(F)(F)F)SC1=C(C#N)c1nnc(N2CCOCC2)n1-c1ccccc1 (stereo unspecified)	8	8	x	-13	x	x	8.3
Cn1cnnc1SCC(C)(C)NS(=O)(=O)c1ccc(Cl)cc1	-4	10	3841	2	-14	-4	2.0
O=C1CCCCC1=NNc1ccc(OCc2ccccc2)cc1	6	2	x	-5	x	x	5.1
Cc1cccc(NC(=O)c2cc(NC(=O)C3CCCCC3C(=O)O)ccc2N2CCOCC2)c1 (stereo unspecified)	12	6	4577	11	-4	-12	2.8
CCC(C(=O)NC1CCCC1)N(C(=O)Cn1nnc(-c2ccc(C)o2)n1)c1cnc2ccccc2c1 (stereo unspecified)	0	11	26220*	-3	-1	-15	0.7
Cc1ccc(NCc2nc3ccccc3n2C)cc1	x	x	3179	6	9	-41	1.0
COc1ccc(OC)c(C2CC(c3c(-c4ccccc4)c4cc(Cl)ccc4[nH]c3=O)=NN2S(C)(=O)=O)c1 (stereo unspecified)	19	-14	3263	-25	-2	-7	-35
COc1ccc(CN2CC(C(=O)NCCN3CCN(c4ccccc4F)CC3)CC2=O)cc1 (stereo unspecified)	12	6	3123	1	1	-4	9.3
CC(Sc1nnc(-c2ccc(Cl)cc2)n1N)C(=O)NCC1CCCO1 (stereo unspecified)	2	-2	5097	1	0	-7	1.2
CCCNC(=O)CN(C)CC(=O)Nc1ccccc1C#N	0	0	4563	-8	0	-16	1.8
CC(C)(C)c1cc[n+](-c2[nH]c(=O)sc2/C=N/NC([S-])=Nc2ccccc2)cc1	x	x	3773	x	5	-1	x
Cc1cccc(C(=O)NCC(=O)OCC(=O)N2CC3(C)CC2CC(C)(C)C3)c1 (stereo unspecified)	2	7	2621	9	-3	2	4.0
CCN(CC)c1ccc(/C=N/NC(=O)c2c(Cl)cnn2C)c(O)c1	x	x	2122	x	45	12	x
C=CCc1cc2c(oc(=O)c3ccccc32)c(C)c1O	4	-1	5388	-15	3	-6	5.6
Cc1ccc(NC(=O)NCCN2CCCCC2)cc1	-9	1	3758	2	24	-9	2.4
Cc1ccsc1/C=N/NC(=O)c1c[nH]c2ccccc12	x	x	5056	x	-4	-75	x
CCCNC(=O)CN(C)S(=O)(=O)c1c(C)cc(C)cc1C	x	x	2464	-3	0	-8	-4.6
OCCNCCOc1ccc(Cl)c(Cl)c1	-1	0	9221	5	13	-54	5.5
CSc1nc2ccsc2c(=O)n1-c1ccccc1	1	0	4262	6	6	-21	2.3
Cc1ccc(-c2nn(Cc3ccccc3)cc2C=CC(=O)O)cc1C	10	2	x	12	x	x	2.1
COc1ccc(C(C)=O)cc1CS(=O)(=O)CC(=O)O	2	7	3391	12	4	1	5.9
CCOc1ccccc1CN1CCC(n2nccc2NC(=O)CCCc2ccccc2)CC1	0	0	6466	2	2	-9	0.8
O=C(COc1ccc(Cl)cc1Cl)Nc1ccc2nc3n(c(=O)c2c1)CCCC3	-1	8	3192	-14	2	-14	21
O=C(c1ccc([N+](=O)[O-])cc1)N1C=CC(C(F)(F)F)=NCC1	12	12	3117	4	-2	-14	11
Cc1ccc(-c2cc3ccccc3nc2N2CCOCC2)cc1	-2	3	4740	91*	5	-2	-3.2
O=C(c1ccccc1[N+](=O)[O-])N1CCN(Cc2ccc3c(c2)OCO3)CC1	17	9	2428	7	-5	-9	2.0
CC12CN3CC(C)(CN(C1)C3c1cc3ccccc3[nH]1)C2=O (stereo unspecified)	-7	1	u	0	-6	1	12
CCN(Cc1ccccc1)C(=O)CCS(=O)(=O)c1ccc2c(c1)CCN2C(C)=O	5	-5	4467	2	-8	-15	2.2
COc1ccc(NC(=O)NC2CCCc3ccccc32)c(OC)c1 (stereo unspecified)	5	-1	4654	9	1	-9	11
O=C(COC(=O)C1CCC1)NCc1ccccc1Cl	2	-3	4763	4	6	-12	4.9
CC(C)(C)OC(=O)N1CCN(C(=O)[C@H](Cc2ccc(O)cc2)n2cc(CCO)nn2)CC1	x	x	3710	x	5	-31	x
COC(=O)C1=C(c2cccc(OC)c2OC)CC2CCC1N2C(=O)NC1CC1 (stereo unspecified)	12	2	x	-12	x	x	1.2
N#Cc1cccc(NC(=O)COC(=O)CCc2nc3ccccc3c(=O)[nH]2)c1	3	2	3328	24	-7	-9	2.4
c1ccc(Nc2cccc3c(Nc4ccccc4)cccc23)cc1	1	13	5754	2	3	-3	2.9
CCOc1cc2c(cc1OCC)C(C(=O)O)C(c1cc(Br)c(O)c(OC)c1)N(C)C2=O (stereo unspecified)	-2	2	4577	1	x	-7	-2.9

Individual results from the entries so far:
COC(=O)C1=C(c2cccc(OC)c2OC)CC2CCC1N2C(=O)NC1CC1 (stereo unspecified) @ Sa ugtP lethal = -12
O=C(c1ccc([N+](=O)[O-])cc1)N1C=CC(C(F)(F)F)=NCC1 @ Mtb hypoxia rep = 12

Next structures:
compound	Mtb hypoxia rep	Mtb hypoxia rep growth	Bead autofluor	Sa ugtP lethal	BJeLR lethal	PrP UTR inh	Sa RN4220 lethal
Cc1ccc(CSC2=CS(=O)(=O)c3ccccc3N2)cc1	x	x	4390	7	-3	-21	-3.4
O=C(NCCCN1CCOCC1)C(C(=O)NCCCN1CCOCC1)c1ncc(C(F)(F)F)cc1Cl	7	-1	4782	2	1	-29	2.8
Cn1nc(N)c2c(-c3ccc(Cl)cc3)c(C#N)c(N)nc21	-10	0	9853	0	0	3	8.2
Cc1cc(C)cc(NC(=O)Cn2c(-c3ccccc3Cl)nc3ccccc32)c1	4	0	2451	-5	7	-83	-1.0
COC(=O)CN1C(=S)N(c2ccc(Cl)cc2)C(=O)C1CC(=O)Nc1ccccc1 (stereo unspecified)	7	-2	9210	-4	-6	-15	2.1
O=C1N(Cc2ccc(F)cc2)CCN1c1ccc(F)cc1	-3	1	3626	5	4	-4	9.9
CC(OC(=O)CNC(=O)c1ccc(F)cc1)C(=O)Nc1ccc(S(=O)(=O)N2CCOCC2)cc1 (stereo unspecified)	4	3	8010	1	x	-9	2.1
Cc1ccc(N(C)S(=O)(=O)c2c[nH]c3ccc([N+](=O)[O-])cc23)cc1	7	-3	6175	-22	2	-1	-7.3
N#C/C(=C\c1cccnc1)c1nc2c(s1)CCCC2	5	1	2146	7	-5	-41	8.8
Cc1cc(Cl)ccc1OC(C)C(=O)Nc1ccc(C(=O)Nc2ccccc2C(=O)O)cc1 (stereo unspecified)	x	x	5187	10	-3	-11	29
CCOc1[nH]n(-c2ccccc2)c(=O)c1C=NCc1cccnc1	14	9	2322	4	6	-12	5.6
CCOC(=O)c1nc(-c2ccc(OC)c(OC)c2)cnc1C#N	11	8	9116	14	-10	-16	5.7
CCN(CCn1cccn1)C(=O)c1cc(COc2c(F)cccc2F)on1	9	-10	2982	8	6	-3	3.4
COc1cc(CN2CCN(Cc3ccc(C)cc3)C(CCO)C2)cc(OC)c1O (stereo unspecified)	1	4	3392	3	11	-9	3.4
CCC(C)NC(=O)Cn1cnc2sc(C)c(S(=O)(=O)N3CCN(c4ccccc4OC)CC3)c2c1=O (stereo unspecified)	-2	-8	3191	1	5	-6	0.8
CCC1CCCN1Cn1cnc2c([nH]c3ccc(Cl)cc32)c1=O (stereo unspecified)	2	5	11378	7	-3	-57	2.1
CCOC(=O)CCCNC(=O)CCCNC(=O)C(c1ccccc1)c1ccccc1	-1	-3	11229	1	8	-1	-0.3
Cc1ccc(-n2c([O-])nc(-[n+]3ccccc3)c2C=O)cc1	7	-6	7197	9	-3	-18	3.5
O=C(O)C1C2c3ccccc3C(=O)C1(C(=O)O)c1ccccc12 (stereo unspecified)	18	3	3604	-1	x	-18	0.9
N#C/C(=C\c1ccc(OCc2ccccc2)cc1)C(N)=O	-2	2	4594	-4	-4	-30	4.5
C=CCC1CCCC(=O)N2CC[C@H](O)C12 (stereo partly specified)	x	x	4155	x	-15	-6	x
CC1(c2ccc(OC(F)F)cc2)NC(=O)N(CC(=O)c2ccc3c(c2)OCO3)C1=O (stereo unspecified)	8	15	4636	7	-3	-15	2.8
COc1ccc(CCNC(=O)Nc2ccc(F)cc2F)cc1OC	0	2	4153	2	0	-13	4.6
O=C(c1ccc(Cl)cc1)c1c[nH]c(C(=O)C(Cl)(Cl)Cl)c1	0	8	2750	-7	8	-24	-6.5

In a second layout: four of the compounds above
> CCOc1[nH]n(-c2ccccc2)c(=O)c1C=NCc1cccnc1
  Mtb hypoxia rep: 14
  Mtb hypoxia rep growth: 9
  Bead autofluor: 2322
  Sa ugtP lethal: 4
  BJeLR lethal: 6
  PrP UTR inh: -12
  Sa RN4220 lethal: 5.6
> CCOC(=O)c1nc(-c2ccc(OC)c(OC)c2)cnc1C#N
  Mtb hypoxia rep: 11
  Mtb hypoxia rep growth: 8
  Bead autofluor: 9116
  Sa ugtP lethal: 14
  BJeLR lethal: -10
  PrP UTR inh: -16
  Sa RN4220 lethal: 5.7
> CCN(CCn1cccn1)C(=O)c1cc(COc2c(F)cccc2F)on1
  Mtb hypoxia rep: 9
  Mtb hypoxia rep growth: -10
  Bead autofluor: 2982
  Sa ugtP lethal: 8
  BJeLR lethal: 6
  PrP UTR inh: -3
  Sa RN4220 lethal: 3.4
> COc1cc(CN2CCN(Cc3ccc(C)cc3)C(CCO)C2)cc(OC)c1O (stereo unspecified)
  Mtb hypoxia rep: 1
  Mtb hypoxia rep growth: 4
  Bead autofluor: 3392
  Sa ugtP lethal: 3
  BJeLR lethal: 11
  PrP UTR inh: -9
  Sa RN4220 lethal: 3.4

The results go on:
compound	Mtb hypoxia rep	Mtb hypoxia rep growth	Bead autofluor	Sa ugtP lethal	BJeLR lethal	PrP UTR inh	Sa RN4220 lethal
CC(C)(C#N)NC(=O)C(=O)c1c(-c2ccccc2)cc2ccccn12	5	7	4812	15	0	x	6.1
CC1Cc2ccccc2N1CC(=O)Nc1ccc2c(c1)OCO2 (stereo unspecified)	11	17	20865*	-5	5	-17	-1.6
CC(C)CC(c1nnnn1CCc1ccccc1)N1CCN(C(=O)c2ccco2)CC1 (stereo unspecified)	0	1	2847	6	-2	-10	7.7
Cc1nc2ccccc2c2c1C(=O)N(C)C2=O	-13	-2	13025	-3	-1	-1	-0.1
CCOC(=O)N1C(=O)[C@@](CC)(c2ccccc2)N1C(=O)OCC	x	x	3541	x	-2	-12	x
COc1ccccc1N1CCN(C(=O)C2c3ccccc3Oc3ccccc32)CC1	x	x	2667	-11	35	-4	-7.0
Cn1c(S(=O)(=O)c2ccc([N+](=O)[O-])cc2)nc(Br)c1Br	-3	-7	4076	95*	1	-16	98*
Cc1ccc(C(C)C)c(OCCNCc2ccccc2)c1	16	11	3944	4	0	-24	6.1
Cc1ccc(N)c(C(O)(C(F)(F)F)C(F)(F)F)c1	x	x	4152	5	-7	14	6.3
COC(=O)CCNS(=O)(=O)c1ccc2nsnc2c1	7	7	3606	-7	x	-15	8.2
O=C(c1ccccc1N1CCOCC1)N1CCCC(Nc2ccc(F)cc2)C1 (stereo unspecified)	6	7	5148	4	1	-5	3.1
CCOC(=O)c1nnn2c3ccccc3c(=O)n(C)c12	-14	0	x	-2	2	x	6.6
COc1cc(CNC2CCCC2)cc(Cl)c1OCc1ccccc1Cl	16	14	11511	-24	-5	-18	-5.1
O=S1(=O)N=C2CCCCCN2C(c2ccc(F)cc2)N1 (stereo unspecified)	11	5	4354	3	1	-9	-0.5

Compound profiles (already shown). Order of values: Mtb hypoxia rep	Mtb hypoxia rep growth	Bead autofluor	Sa ugtP lethal	BJeLR lethal	PrP UTR inh	Sa RN4220 lethal
O=C(c1ccccc1N1CCOCC1)N1CCCC(Nc2ccc(F)cc2)C1 (stereo unspecified) as listed: 6	7	5148	4	1	-5	3.1
COc1cc(CNC2CCCC2)cc(Cl)c1OCc1ccccc1Cl as listed: 16	14	11511	-24	-5	-18	-5.1
Cn1c(S(=O)(=O)c2ccc([N+](=O)[O-])cc2)nc(Br)c1Br as listed: -3	-7	4076	95*	1	-16	98*
O=S1(=O)N=C2CCCCCN2C(c2ccc(F)cc2)N1 (stereo unspecified) as listed: 11	5	4354	3	1	-9	-0.5

An unsorted share of the library. About 4% of those tested had a hit in this group.
